Measles inh = inhibitors of measles virus growth in infected cells; z-score (no concentration beside the values); 0.1% of 33,000 active; infected Vero cells, GFP fluorescence, 64 h; hits give low values;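 active = z-score under -3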;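 also: score is relative to mean and SD of the compound wells of a plate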
The depositor's hits bear a star. These rows are one share of the data; rates above refer to the full screens.

SMILES | Measles inh
COC(=O)c1c(N2C(=O)C3ON(c4ccccc4C)C(c4ccccc4)C3C2=O)sc(C)c1C (centres undefined) | 0.16
CCOc1ccccc1NC(=O)c1c(NC(=O)c2cccs2)sc2c1CCC(C)C2 (centres undefined) | 0.96
COc1ccc(-c2cn3c(C)c(C(=O)NC(C)(C)C)sc3n2)cc1 | -0.69
CCc1ccc(C(=O)CSC2=NCCS2)cc1 | 0.87
O=C(NCC1CCCO1)c1cc2c(=O)[nH]c3ccccc3c2s1 (centres undefined) | -2.76
COc1cc(Br)c(C2CC(=O)NC(C)=C2C(=O)OC2CCCC2)cc1OC (centres undefined) | -0.63
Cc1ccc(Nc2nc(-c3c(C)nc4ccccn34)cs2)cc1 | -2.99
CC(=O)C1=C(O)C(=O)N(CCN2CCOCC2)C1c1ccccc1 (centres undefined) | 1.09
CC1=Nc2cc(C(=O)NCCN3CCOCC3)ccc2Sc2ccc(Cl)cc21 | -0.56
O=C(NCc1ccccc1Cl)c1ccc([N+](=O)[O-])cc1Cl | -0.5
Cc1ccc(N=Cc2cc(Cl)cc([N+](=O)[O-])c2O)c(O)c1 | -0.03
Cc1c(NC(=O)Cc2ccc(F)cc2)c(=O)n(-c2ccccc2)n1C | 0.08
CCC(C)OC(=O)C1=C(C)NC(=O)NC1c1ccc(OC)cc1 (centres undefined) | -0.78
Cc1cc(=O)oc2c(C)c3occ(-c4ccccc4)c3cc12 | 0.15
O=C1c2[nH]nc(-c3ccccc3)c2C(c2ccc([N+](=O)[O-])cc2)N1c1ccccc1 (centres undefined) | -1.43
COc1ccccc1OCC(=O)Nc1c[nH]c(=O)[nH]c1=O | -1.19
CCOCCOC(=O)C1=C(C)NC(=O)NC1c1ccccc1Br (centres undefined) | -0.12
COc1cccc(C=Cc2nc3ccccc3c(=O)n2-c2cc(Cl)ccc2C)c1OC | 0.54
CC1CCCN(C(C(=O)Nc2ccc(C(C)C)cc2)c2ccc3c(c2)OCO3)C1 (centres undefined) | 0.72
Cc1ccc(C)c(C(=O)Cc2cc3ccccc3oc2=O)c1 | 1.54
Cc1nn(-c2cc(N3CCOCC3)ccc2[N+](=O)[O-])c(=O)c2ccccc12 | -0.55
C=CCN(C(=O)Cn1c(=O)n(-c2ccc(F)cc2)c(=O)c2sccc21)c1ccccc1 | 2.13
O=C(O)CCC(=O)Nc1nc2n(n1)C(c1ccccc1)C=C(c1ccc(Cl)cc1)N2 (centres undefined) | 1.68
CC1(C)Cc2ccccc2C(CSc2nc(-c3ccco3)cc(C(F)(F)F)n2)=N1 | -1.36
O=C(NCCc1nc(-c2ccccc2)cs1)c1ccc(Br)cc1 | 1.37
COC(=O)c1nc2n(n1)C(c1ccc(F)cc1)C(C(=O)OC1CCCCC1)=C(C)N2 (centres undefined) | 1.03
Cc1ccc(S(=O)(=O)Nc2cc3sc(=O)oc3c3ccccc23)c(C)c1 | 0.08
CCOC(=O)C1CCCN(C2CC(=O)N(c3ccc(F)cc3)C2=O)C1 (centres undefined) | -0.42
N=c1n(CC(=O)c2ccco2)c2ccccc2n1Cc1ccccc1 | -0.83
COc1cc(C2SC(NC(C)=O)=NN2C(C)=O)ccc1OCc1ccc([N+](=O)[O-])cc1 (centres undefined) | -0.96
CCc1nnc(NC(=O)c2sc3nc4c(cc3c2N)CCC4)s1 | 0.08
CCOC(=O)COc1ccc2c3c(c(=O)oc2c1)CCCC3 | 1.09
COc1ccc(CCN2C(=O)CC(C(N)=O)SC2=Nc2ccccc2)cc1 (centres undefined) | 0.66
O=C(C1CCC(CNS(=O)(=O)c2ccc(Br)s2)CC1)N1CC=C(c2ccccc2)CC1 (centres undefined) | 0.01
COc1ccccc1NC(=O)c1ccc(N2CC3CC(C2)c2cccc(=O)n2C3)c(NC(=O)c2cccnc2)c1 (centres undefined) | 0.23
O=[N+]([O-])c1ccc(Oc2nc(-c3ccccc3)c3cc(Cl)ccc3n2)cc1 | -0.11
Cc1ccc2cc3cc(C(=O)NC4CCCCCC4)sc3nc2c1 | -0.67
O=C(O)c1ccc2c(c1)C1C=CCC1C(c1ccccc1[N+](=O)[O-])N2 (centres undefined) | 0.11
CC(=O)Nc1ccc(Br)cc1C(=O)C(=O)Nc1cccc(C(=O)NC2CCCC2)c1 | 0.34
COc1ccc(-n2c(=O)c3c4c(sc3n(CC(=O)C(C)(C)C)c2=O)CCCC4)c(OC)c1 | 0.12
COc1ccc(C2C3=C(CCCC3=O)Nc3nc(SCc4ccccc4F)[nH]c(=O)c32)cc1OC (centres undefined) | -0.61
CC(=O)Oc1cccc(C(=O)Nc2nccs2)c1 | 0.15
Cc1cccn2c1nc(=S)n2C(=O)c1ccccc1 | -0.05
CCc1ccc(NC(=O)c2cc(S(=O)(=O)NCCc3ccccc3)ccc2F)cc1 | -1.28
COc1cccc(C2C3=C(Nc4c2c(=O)n(C)c(=O)n4C)c2ccccc2C3=O)c1 (centres undefined) | 0.24
CCc1ccc2c(c1)C1=C(SC(C(=O)OC)=C(C(=O)OC)C13SC(C(=O)OC)=C(C(=O)OC)S3)C(C)(C)N2 | 0.54
c1ccc(Cn2c3ccccc3c3nnc(SCCN4CCCCC4)nc32)cc1 | 0.13
Cc1ccc(NC(=O)C2C3C=CC4(O3)C2C(=O)N(CCC(C)C)C4C(=O)NC2CCCCC2)cc1C (centres undefined) | -0.85
Cc1cccc(NC(=O)CN2C(=S)NC(C)(C)CC2C)c1 (centres undefined) | 0.27
O=C(NCc1ccccc1Cl)c1ccc(Cn2c(=S)[nH]c3cc4c(cc3c2=O)OCO4)cc1 | -0.9
CCN(CC)C(=O)c1c(NC(=O)c2ccccc2)sc2c1CCC(C)C2 (centres undefined) | 0.17
COc1cc2[nH]c(=S)n(Cc3ccc(Cl)cc3)c(=O)c2cc1OC | 0.11
CN1CCN(C(=O)C(=O)Nc2cccc3ccccc23)CC1 | -1.39
COC(=O)c1ccc(C(=O)OC)c(NC(=O)c2ccco2)c1 | -0.78
c1nc(N2CCCCCC2)c2[nH]cnc2n1 | 0.6
CC1CCN(C(=O)Cn2c(=O)n(CCc3ccccc3)c(=O)c3ccccc32)CC1 | 2.65
c1nc(NC2CCCCC2)c2c3c(sc2n1)CCCC3 | -0.31
CCCCOc1ccc2nc3c(nc2c1)C(=O)c1ccccc1C3=O | -0.03
COc1ccc(NC(=O)c2oc3ccc(S(=O)(=O)N4CCCCC4)cc3c2C)cc1Cl | -0.25
N#CCSc1nc(NCC2CCCO2)c2ccccc2n1 (centres undefined) | -1.26

No new results follow: 17 of the compounds above.
SMILES | Measles inh
CCc1ccc(NC(=O)c2cc(S(=O)(=O)NCCc3ccccc3)ccc2F)cc1 | -1.28
COc1cccc(C2C3=C(Nc4c2c(=O)n(C)c(=O)n4C)c2ccccc2C3=O)c1 (centres undefined) | 0.24
CCc1ccc2c(c1)C1=C(SC(C(=O)OC)=C(C(=O)OC)C13SC(C(=O)OC)=C(C(=O)OC)S3)C(C)(C)N2 | 0.54
c1ccc(Cn2c3ccccc3c3nnc(SCCN4CCCCC4)nc32)cc1 | 0.13
Cc1ccc(NC(=O)C2C3C=CC4(O3)C2C(=O)N(CCC(C)C)C4C(=O)NC2CCCCC2)cc1C (centres undefined) | -0.85
Cc1cccc(NC(=O)CN2C(=S)NC(C)(C)CC2C)c1 (centres undefined) | 0.27
O=C(NCc1ccccc1Cl)c1ccc(Cn2c(=S)[nH]c3cc4c(cc3c2=O)OCO4)cc1 | -0.9
CCN(CC)C(=O)c1c(NC(=O)c2ccccc2)sc2c1CCC(C)C2 (centres undefined) | 0.17
COc1cc2[nH]c(=S)n(Cc3ccc(Cl)cc3)c(=O)c2cc1OC | 0.11
CN1CCN(C(=O)C(=O)Nc2cccc3ccccc23)CC1 | -1.39
COC(=O)c1ccc(C(=O)OC)c(NC(=O)c2ccco2)c1 | -0.78
c1nc(N2CCCCCC2)c2[nH]cnc2n1 | 0.6
CC1CCN(C(=O)Cn2c(=O)n(CCc3ccccc3)c(=O)c3ccccc32)CC1 | 2.65
c1nc(NC2CCCCC2)c2c3c(sc2n1)CCCC3 | -0.31
CCCCOc1ccc2nc3c(nc2c1)C(=O)c1ccccc1C3=O | -0.03
COc1ccc(NC(=O)c2oc3ccc(S(=O)(=O)N4CCCCC4)cc3c2C)cc1Cl | -0.25
N#CCSc1nc(NCC2CCCO2)c2ccccc2n1 (centres undefined) | -1.26

Further results follow:
SMILES | Measles inh
COc1ccc(OC)c(NC(=O)C2c3ccccc3C(=O)N(C)C2c2cccs2)c1 (centres undefined) | -1.83
COc1ccc(CSc2nc(N)c3c4c(sc3n2)CCCC4)cc1 | -0.23
O=[N+]([O-])c1c(C=Nc2ccccc2F)ccc2c1OCO2 | -0.15
N/C(=N\c1nc2ccccc2o1)NC(=O)c1ccc([N+](=O)[O-])cc1 | -0.06
O=C1C2C3C=CC(C3)C2C(=O)N1c1cccc(-c2nc3ccccc3c(=O)o2)c1 (centres undefined) | -1.91
COc1cc(C2NC(C(=O)O)CS2)ccc1O (centres undefined) | 0.83
Nc1nc2ccc(C(=O)O)cc2s1 | -0.01
Cc1cc(C)cc(-n2cc(-c3ccc(F)cc3)[nH]c2=O)c1 | 0.14
CC(=O)Nc1cccc(Oc2nnc(-c3ccc(C)cc3)c3ccccc23)c1 | 0.5
CC1CCCCN1S(=O)(=O)c1ccc(C(=O)Nc2cccc3c2C(=O)c2ccccc2C3=O)cc1 (centres undefined) | 0.34
O=C(COc1ccc(Cl)cc1)N1CCN(c2ccccn2)CC1 | -0.74
CC1=C(C(=O)OCc2ccc3c(c2)OCO3)C(c2ccc([N+](=O)[O-])cc2)NC(=O)N1 (centres undefined) | 0.25
C=CCN(c1ccccc1)S(=O)(=O)c1ccc2[nH]cc(C(=O)O)c(=O)c2c1 | 1.09
O=C(COc1ccc(Br)cc1)Nc1ccc(N2CCOCC2)cc1 | -0.6
Cc1ccc(C(=O)O)cc1NC(=O)c1cc2ccccc2oc1=O | 0.74
COc1ccc(-c2nc3ccc(C)cn3c2Nc2ccc3c(c2)OCCO3)cc1 | -0.97
Cc1cc(C)c(NC(=O)Cn2c(=O)n(CCC(=O)N3CCc4ccccc4C3)c(=O)c3ccccc32)c(C)c1 | -0.14
O=c1c2ccccc2c(=O)n(Cc2ccccc2)n1Cc1ccccc1 | 1.7
COCCNC(=O)CSc1nc2nc(C)cc(C)n2n1 | -0.72
CCOC(=O)c1ccc2c(c1)C(=O)N(c1ccc3c(c1)oc1ccccc13)C2=O | -0.48
COC(=O)c1nnn(CC(=O)Nc2ccccc2Cl)c1C(=O)OC | -0.73
COc1ccc(C(=O)Nc2cccc(C(C)=O)c2)cc1 | -0.55
CN(Cc1ccccc1)S(=O)(=O)c1ccc(F)c(C(=O)Nc2ccccc2Cl)c1 | -0.86
O=C(CC1N=C2c3ccccc3N=C(SCc3ccccc3Cl)N2C1=O)NCc1ccccc1 (centres undefined) | -0.61
COc1ccc(C2Nc3cccc4cccc(c34)N2)cc1Br | 0.11
O=C(Nc1ccc2c(c1)oc1ccccc12)c1cccc(C(F)(F)F)c1 | -0.72
CCc1cc2c(=O)c(-c3ccc4c(c3)OCO4)c(C)oc2cc1OCC(=O)O | -0.68
Cc1cc(C)nc(NS(=O)(=O)c2ccc(Br)cc2)n1 | -3.09*
CSc1ccc(S(=O)(=O)NCCc2ccc(Cl)cc2)cc1 | 0.82
O=C1C=C(NCc2cccnc2)C2(CCCCC2)O1 | 1.72
CCOC(=O)C1=C(C)Nc2nnnn2C1c1cc(OC)ccc1OC (centres undefined) | -0.42
COc1cc(-n2cnc3cc(C(=O)NCc4ccco4)ccc32)cc(OC)c1OC | -0.84
Cc1ccc(CNC(=O)c2cnn3c(C)c(Cc4ccccc4F)c(C)nc23)cc1 | -0.3
COc1ccc(-n2nc3ccc(NC(=O)COc4ccc(Br)cc4)cc3n2)cc1 | -0.1
COC(=O)C1=C(C(=O)OC)C2(OC1c1cccc(F)c1)C(=O)c1ccccc1C2=O (centres undefined) | 0.13
COc1ccc(CNC(=O)c2ccc(OC(C)=O)cc2)cc1 | -1.53
O=C(Cn1c(=O)n(-c2ccccc2)c(=O)c2sccc21)NCc1ccccc1 | -0.25
Cc1cc(C)nc(SCC(=O)N2c3ccccc3Sc3ccc(C(F)(F)F)cc32)n1 | 1.87
Cn1c(=O)c(Cl)c(O)c2ccccc21 | 0.2
COc1cc(C2C(C(=O)OC(C)C)=C(C)NC3=C2C(=O)CC(c2cccs2)C3)cc(OC)c1OC (centres undefined) | -0.15
COc1ccc(NC(=O)c2ccc(OC)c(OC)c2)c(OC)c1 | 1.22
Cc1nc2nc(C(=O)O)[nH]n2c(=O)c1Cc1ccccc1 | 0.47
COc1cc(OC)c(NC(=O)c2nn(-c3ccccc3OC)c(=O)c3ccccc23)cc1Cl | -1
O=C(NCCC1=CCCCC1)c1ccc(Cn2c(=S)[nH]c3ccc(Br)cc3c2=O)cc1 | -0.19
Cc1cc(N2CCCCC2)nc2ccc(NC(=O)c3cccnc3Cl)cc12 | 1.44
O=c1c2cnn(-c3ccccc3)c2nc(-c2ccccc2F)n1-c1ccccc1 | 0.36
COCCN1C(=O)CCC1(C)C(=O)NC1CCC(C)CC1 (centres undefined) | 0.67
CCOc1ccc(S(=O)(=O)N(CC(=O)Nc2ccccc2C(F)(F)F)c2ccccc2)cc1 | 1.81
CCOc1ccc(-c2csc(=Nc3ccccc3)n2CCN2CCOCC2)cc1 | -0.79
O=[N+]([O-])c1ccc(Cl)c(S(=O)(=O)Nc2ccc(O)c(Sc3nc4ccccc4s3)c2)c1 | -0.13
COc1ccccc1CNC(=O)c1sc2ncnc(N(C)c3ccccc3)c2c1C | -0.08
COc1ccc(C2/C(=C(\O)c3ccccc3)C(=O)C(=O)N2c2ccc(C)c(Cl)c2)c(OC)c1 (centres undefined) | -0.28
Cc1ccc(NC(=O)c2cc(S(=O)(=O)Nc3ccc(F)cc3)ccc2Cl)cc1 | -1.11
C=CCSc1nc2sc3c(c2c(=O)n1CC(=C)C)CC(C)(C)OC3 | 0.14
CCOC(=O)C1C(=O)C=C(c2ccco2)CC1c1cccc(OC)c1OC (centres undefined) | 0.1
CC1(C)CC(=O)C2=C(C1)c1c(ccc3ccccc13)NC2c1cccn1-c1cccc([N+](=O)[O-])c1 (centres undefined) | 1
CCn1c(C)[n+](CC(O)COc2ccccc2C)c2ccccc21 (centres undefined) | 0.28
ClCCCSc1ncnc2nc[nH]c12 | -0.56
COC(=O)c1c(NC(=O)c2ccc([N+](=O)[O-])cc2Cl)sc2c1CCC(C)C2 (centres undefined) | 0.71

Screening results: PubChem BioAssay, Emory University Molecular Libraries Screening Center
